# Compound activity: PubChem BioAssay, several laboratories
# E coli growth: E. coli growth inhibition; AID 1053175; 0.21% of 330,000 active; OD600 absorbance (test concentration not listed); Escherichia coli growth, OD600, 23 h; stronger effect = lower value;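 active means OD600 absorbance below the run mean of sample wells minus 3.6 SD, in any replicate, cut at about 0.56 in these data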;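 further: stock transfer was 300 nL into about 60 µL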
# LANA-H2B inh: blocks KSHV LANA binding to histone H2A/H2B; Q9QR71; inhibition, % (concentration not given with the values); 0.6% of 320,000 active; cell-free LANA-H2A/H2B peptide, fluorescence polarization; in the data active means inhibition mostly above about 10%, no sharp cut-off; inactive means mostly below about 6.7%;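 further: stock transfer was 7.5 nL into about 10 µL; 0% = median of vehicle wells and 100% = median of positive control wells; one replicate is shown; the record names a cut of 25% in any replicate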
# Target sequence (Q9QR71 whole entry, looked up): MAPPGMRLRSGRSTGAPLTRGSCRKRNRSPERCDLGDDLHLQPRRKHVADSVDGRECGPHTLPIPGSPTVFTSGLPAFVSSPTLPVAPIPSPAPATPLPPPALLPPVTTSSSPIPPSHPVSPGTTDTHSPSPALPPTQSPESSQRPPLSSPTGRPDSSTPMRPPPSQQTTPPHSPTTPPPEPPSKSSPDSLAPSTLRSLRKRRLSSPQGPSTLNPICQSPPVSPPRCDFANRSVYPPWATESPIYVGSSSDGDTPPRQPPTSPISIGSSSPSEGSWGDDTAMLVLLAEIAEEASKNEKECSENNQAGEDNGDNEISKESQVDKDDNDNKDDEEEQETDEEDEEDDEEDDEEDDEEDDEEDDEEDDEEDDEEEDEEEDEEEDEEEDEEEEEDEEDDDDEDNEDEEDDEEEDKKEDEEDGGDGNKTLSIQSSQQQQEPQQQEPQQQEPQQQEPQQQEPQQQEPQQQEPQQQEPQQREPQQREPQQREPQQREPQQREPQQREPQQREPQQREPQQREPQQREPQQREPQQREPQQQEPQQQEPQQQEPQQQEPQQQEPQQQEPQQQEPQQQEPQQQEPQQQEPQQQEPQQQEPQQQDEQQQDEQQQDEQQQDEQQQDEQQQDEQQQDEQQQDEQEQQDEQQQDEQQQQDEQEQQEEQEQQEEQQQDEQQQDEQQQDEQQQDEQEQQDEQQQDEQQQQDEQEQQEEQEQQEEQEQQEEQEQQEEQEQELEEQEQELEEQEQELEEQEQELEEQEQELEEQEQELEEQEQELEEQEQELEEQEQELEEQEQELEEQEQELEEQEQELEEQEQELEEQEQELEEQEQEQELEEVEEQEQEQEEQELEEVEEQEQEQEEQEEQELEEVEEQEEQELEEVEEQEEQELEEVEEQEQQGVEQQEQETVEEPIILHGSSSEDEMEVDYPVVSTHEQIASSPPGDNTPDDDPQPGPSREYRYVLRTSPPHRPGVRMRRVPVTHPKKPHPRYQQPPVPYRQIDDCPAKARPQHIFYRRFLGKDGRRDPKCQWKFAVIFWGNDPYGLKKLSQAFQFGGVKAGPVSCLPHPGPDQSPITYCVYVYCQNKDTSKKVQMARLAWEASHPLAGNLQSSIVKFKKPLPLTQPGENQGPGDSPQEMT
# HNF4A DNA FP: change in binding of human HNF4 alpha to DNA; HNF4a-FITC DNA binding, fluorescence polarization, 1 h; activity change, % at 10 µM; AID 1224865; P41235; 0.3% of 360,000 active; in the data active means activity change above about 30%, passing the limit was not always enough;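 further: controls were the assay level and a saturating level of protein; the project sought stronger binding though the title names inhibitors; some compounds called inactive have numbers as strong as hits; positive values seem to mean higher polarization but the record does not say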
# Bfl-1 A1 inh: inhibitors of the anti-apoptotic protein A1, read as caspase activation | MEF A1-2A-BIM cells, Caspase-Glo 3/7 luminescence, 3 h; percent of clofoctol response, vehicle zero | caspase activation, % (concentration not given with the values) | 0.066% of 330,000 active | AID 2462;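 active means over half of replicate activation scores above 10%, or exactly half above 10 with the replicate mean above 10; inconclusive means replicate mean below 10 yet half the replicates above 10; inactive means over half of replicates below 10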;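 further: wells of about 30 µL received 50 nL stock; many hits fall short of the cut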
# UCH37 inh: blocks the human deubiquitinase UCH37; Q9Y5K5; purified proteasome/UCH37, Ub-AMC cleavage fluorescence; inhibition, % (concentration not given with the values); 0.33% of 330,000 active; AID 588478;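 active means mean of two replicates above 20%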;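 further: 0% = compound-free wells with enzyme and 100% = wells lacking proteasome; stock transfer was 100 nL into about 20 µL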
#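 Test system – human UCH37 enzyme supplied as purified proteasome complex · Incubation – 30 min preincubation with enzyme, 25 min cleavage at room temperature · Detection – AMC fluorescence from Ub-AMC cleavage, excitation 355 nm, emission 460 nm · Benchmarks – no-proteasome wells (full inhibition) and compound-free wells (no inhibition)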
# B2AR ag: activates human beta-2 adrenergic receptor causing internalization; 0.43% of 340,000 active; response, % (no concentration beside the values); P07550; Am2.2-beta2AR cells, FAP receptor internalization, flow cytometry; reference of the scale not given here;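 active means response above a set limit, near 3 SD of response in nonfluorescent compounds, cut at about 42% in these data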;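 further: stock transfer was 100 nL into about 11 µL; a reference agonist was the positive control; negative values mostly stem from fluorescent compounds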
# Vif A3G: HIV-1 Vif–A3G interaction blockers – biochemical, TR-FRET, GST-Vif 1-94, biotin-A3G peptide, dose response retest, primary screen (AID 1117319); TR-FRET GST-Vif / biotin-A3G peptide binding; higher % means a stronger effect; test concentration not given here; strong numbers were not always called active; 0.57% of 260,000 active; one-dose inhibition, %; IC50 in µM for titrated hits;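 active means above the screen mean plus three standard deviations and confirmed in dose response; inconclusive means results disagree or hit not tested in dose response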;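 further: Vif residues 1-94 fused to GST binding biotinylated APOBEC3G peptide 110-148; 0% = full assay without inhibitor and 100% = GST in place of GST-Vif; retest series ran down from 100 µM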
# Starred values were filed as active, the others as inactive; i = inactive; u = inconclusive; x = no result given.
SMILES,E coli growth,LANA-H2B inh,HNF4A DNA FP,Bfl-1 A1 inh,UCH37 inh,B2AR ag,Vif A3G
COc1ccccc1CC(NC(C)=O)C(=O)NC1CCN(C(=O)Nc2ccc(F)cc2)CC1 (stereo not given),x,-2.4,-1.1,0.2,x,-2.3,-6.0%
COc1ccc(-c2noc(C3CCCN(C(=O)c4ccccc4)C3)n2)cc1 (stereo not given),0.697,6.4,-2.6,0.9,4.3,2.9,3.5%
CN(C(=O)COC(=O)C1=COCCO1)c1c(N)n(Cc2ccccc2)c(=O)[nH]c1=O,0.718,-0.9,3.4,-0.6,1.6,-0.3,1.1%
CC1CN(CC(O)COc2ccccc2C(C)(C)C)CC(C)O1 (stereo not given),0.713,-7.7,0.1,0.4,2.7,-1.9,-2.1%
O=[N+]([O-])c1cccc(/C=C/c2nc[nH]c2[N+](=O)[O-])c1,0.69,0.1,0.8,-4.9,5.5,-0.1,21.1%
CN(CC(=O)Nc1ccc(F)c(F)c1F)c1ncnc2sccc12,0.665,5.6,3.9,-1.7,3.2,-17.6,-9.7%
c1ccc(CCNC2=NCCS2)cc1,0.697,0.6,-1.8,2.7,5.4,3.3,x
O=C(NCCCn1ccnc1)c1nc(Cn2ccc([N+](=O)[O-])n2)no1,0.695,-3.5,-0.7,0.5,1.5,23.9,x
COc1ccc(S(=O)(=O)Nc2cccc(SC)c2)cc1C(=O)N1CCOCC1,0.688,-1.5,0.8,-0.1,0.5,3.6,x
Cc1[nH]c2ccccc2c1/C=C/c1nc2ccccc2c(=O)n1-c1ccc([N+](=O)[O-])cc1,0.749,-4.1,8.2,0.1,3.1,21.2,x
Cc1ccc(C(CC(=O)O)NC(=O)c2ccc(S(=O)(=O)N3CCCC3)cc2)cc1 (stereo not given),0.641,x,0.6,x,6.0,-4.7,-5.2%
Cc1ccc(-c2nc3cc(NC(=O)C(C)C)ccc3o2)cc1C,0.73,4.4,0.9,-7.1,-26.7,4.2,11.1%
CCOc1ccc2nc3c(cc2c1)CN(CCOC)C(=NCCOC)S3,0.714,3.2,1.3,-0.4,-7.5,0.2,4.0%
CCc1cccc(CC)c1NC(=O)CSc1nnc(C(C)C)n1CC,0.732,-1.5,4.6,1.0,-1.9,-4.8,1.5%
COc1cccc(N2CC(C(=O)Nc3nnc(SCCN4CCOCC4)s3)CC2=O)c1 (stereo not given),0.69,-2.6,-1.1,-1.9,2.0,5.2,-2.3%
CCCCOC(=O)c1ccc(NC(=S)NC(=O)c2c(Cl)cnn2CC)cc1,0.739,1.2,0.2,-0.4,0.4,4.6,-9.8%
O=C(Nc1ccccc1)OCCNC(=O)c1cccc(Cl)c1,0.704,0.9,3.6,-0.7,0.9,-10.8,9.0%
Nc1nc2ccc([N+](=O)[O-])cc2[nH]1,x,-4.6,-1.5,-0.8,x,-9.0,x
O=C(NCc1cccs1)c1nc(-c2cccs2)no1,0.703,13.1,-2.5,-0.8,4.9,1.7,1.1%
CCC(C)C(=O)Nc1nc2c(s1)C(=O)CC(C)(C)C2 (stereo not given),0.78,2.4,-6.9,-0.4,6.7,-6.6,-4.1%
CCc1ccc(NC(=O)CN(c2cccc(C)c2)S(C)(=O)=O)cc1,0.641,4.5,0.3,-0.3,4.4,5.3,5.1%
O=C(c1cccc(N2CCCC2=O)c1)N1CCN(c2ccccc2)CC1,0.753,2.8,-1.3,0.1,-1.0,-3.6,6.0%
CC1CCN(C(=O)COC(=O)c2cc([N+](=O)[O-])ccc2N2CCOCC2)CC1,0.653,3.2,-3.5,-0.4,9.1,-18.7,-3.3%
CC(C)(C)c1ccc(S(=O)(=O)Nc2ccc(Cc3ccncc3)cc2)cc1,0.715,-3.0,-1.3,-0.4,1.1,-7.9,14.6%
CC(c1ccccc1)n1c(-c2cccs2)nc2c(c(=O)c3ccccc3n2C)c1=O (stereo not given),0.671,2.1,-0.7,0.0,1.3,-3.7,31.7%
CCOC(=O)C1=C(C)NC(=O)NC1c1ccc(OCCO)c(OC)c1 (stereo not given),0.705,2.1,-0.7,0.6,3.6,3.0,7.2%
CCOC(=O)NC(O)C(=O)c1cccs1 (stereo not given),0.673,-3.2,-1.5,0.2,4.2,-5.1,10.5%
CCS(=O)(=O)N1Cc2ccccc2CC1C(=O)OCC(=O)Nc1ccc(SC(F)F)cc1 (stereo not given),0.745,1.3,0.7,0.7,5.5,6.2,12.2%
CCC(=O)Nc1ccc(NC(=O)CSc2nnnn2-c2ccc3c(c2)OCCO3)cc1,0.724,-5.4,-3.2,-0.9,2.2,-8.7,-0.2%
Cc1cc(C)nc(NNS(=O)(=O)c2ccc(F)c(Cl)c2)n1,x,-5.6,-0.1,0.5,x,-2.6,x
O=C(NCCCc1ccccc1)c1c(O)nc2sccn2c1=O,0.68,1.1,3.5,-0.2,-1.8,-1.1,-12.0%
Cc1ccccc1CN(c1ccc(C(=O)NCCC2=CCCCC2)cc1)S(C)(=O)=O,0.716,-0.3,0.2,0.9,-0.2,10.9,21.5%
CCC(=O)Nc1ccc(-c2ccc(N3CCC(C)CC3)nn2)cc1,0.661,-1.8,-3.1,-2.1,3.5,-6.2,0.6%
COc1ccccc1S(=O)(=O)Nc1cc(S(=O)(=O)N2CCCCC2)ccc1N1CCOCC1,0.683,1.6,-6.3,2.1,3.8,9.4,10.8%
COc1ccccc1OCC(=O)O/N=C(\N)c1ccccn1,0.653,-4.3,-1.7,-2.9,1.3,-5.8,-4.7%
CCCn1c(SCC(=O)NCc2cccs2)nc2c1c(=O)n(C)c(=O)n2C,0.667,3.3,-0.4,-0.3,0.1,4.2,24.9%
Cc1cc2c(Nc3ccc(C(=O)O)cc3)ncnc2s1,0.663,-2.2,3.1,-1.9,2.4,-1.6,x
Cc1ccc(OCCC(=O)OCC(=O)NC(=O)NC2CCCC2)cc1,0.694,-0.7,-1.1,-0.6,-2.2,2.6,-1.5%
COc1ccccc1-c1oc2ccccc2c1-c1ccc2c(c1)OCO2,0.622,0.2,1.4,0.8,2.4,20.9,x
CCOc1ccc(CNCCN2CCCC2)cc1,0.675,0.0,0.0,-1.2,2.4,-0.2,x
Cc1cc(-c2ccccc2)nc2c(Br)c(=O)[nH]n12,x,13.1*,3.0,0.8,x,2.6,9.4%
OC(Cc1ccnc2ccccc12)C(Cl)(Cl)Cl (stereo not given),0.705,x,3.4,x,2.6,-17.9,-1.1%
CC1(CC(=O)N/N=C/c2ccc(-c3ccc(Cl)cc3)o2)OCCO1,x,3.6,2.7,-0.1,x,0.1,20.3%
CN(C)S(=O)(=O)N1CCN(C(=O)c2cccc(Br)c2)CC1,0.72,2.7,1.7,1.2,0.1,8.7,1.3%
O=C(C(=O)N1CCCCC1)c1c(-c2ccccc2)[nH]c2ccccc12,0.661,-2.0,-3.5,0.2,4.8,12.4,-3.4%
Cc1cc(C)nc(N/C(=N\S(=O)(=O)Cc2ccccc2)Nc2cccc(Cl)c2C)n1,0.656,-1.4,1.8,1.1,1.5,-1.6,23.1%
Cc1ccc(NC(=O)Cc2csc(-c3ccccc3)n2)cc1F,0.654,2.7,2.5,-0.5,2.1,0.0,-5.1%
O=C(CSc1nnc(CNC(=O)c2cccs2)o1)Nc1ccccc1F,0.618,1.1,0.7,1.0,1.9,-0.8,x
COc1cccc(C(=O)SC2=NCCS2)c1,0.661,-8.1,1.1,-1.3,0.5,5.4,6.3%
O=C(c1cccs1)C1CCCN(Cc2nc(Cc3ccccc3F)no2)C1 (stereo not given),0.711,4.4,-0.8,0.3,4.2,-0.8,x
OCCCNc1nc(-c2ccccc2)nc2c1oc1ccccc12,0.664,-0.4,0.1,-0.1,4.1,-3.5,14.5%
CCOC(=O)/C(=C/C1=CC(=C/N(C)C)/C(=O)O1)C(C)=O,0.676,-26.4,65.6*,0.2,21.6*,-15.7,-3.2%
COc1ccc(-c2nn(-c3ccccc3)cc2C(=O)NCC2CCCO2)cc1 (stereo not given),0.722,-5.1,1.1,u,-0.3,-14.6,-8.1%
CCC(C)NC(=O)c1ccc(CSCc2ccccc2Cl)o1 (stereo not given),0.674,0.3,-4.5,1.0,0.6,12.3,2.5%
Cn1nnnc1Sc1ncnc2scc(Br)c12,x,-1.7,4.8,0.0,x,15.8,x
CCN(CC(=O)Nc1c(F)cccc1F)C(=O)C1(c2ccccc2)CC1,0.743,-3.8,3.1,-0.1,4.2,-2.1,-5.8%
CC1CN(S(=O)(=O)c2cccc(C(=O)OCC(=O)NCc3ccccc3)c2)CC(C)O1 (stereo not given),0.68,0.0,-1.1,-0.4,1.5,-0.6,-6.3%
Oc1ccccc1C=NNc1nc2ccccc2s1,0.737,x,1.9,x,4.2,4.7,-4.5%
O=C(CNC(=O)c1ccccc1)N/N=C/c1ccc([N+](=O)[O-])s1,x,-3.6,2.2,-0.7,x,-2.2,u
Cc1cc(=O)oc2cc(OC(=O)C3CCN(C(=O)c4ccc(F)cc4)CC3)ccc12,0.683,-4.3,2.8,1.0,i,4.9,0.6%

# UCH37 inh, hit marks shown above.
Compound,LANA-H2B inh,HNF4A DNA FP,UCH37 inh,B2AR ag,Vif A3G
CCOC(=O)/C(=C/C1=CC(=C/N(C)C)/C(=O)O1)C(C)=O,-26.4,65.6*,21.6*,-15.7,-3.2%

# Further entries:
SMILES,E coli growth,LANA-H2B inh,HNF4A DNA FP,Bfl-1 A1 inh,UCH37 inh,B2AR ag,Vif A3G
O=C1C2C(C(=O)N1c1ccccc1)N1CCCN1C2c1ccccc1 (stereo not given),0.672,-0.1,0.8,0.6,-0.9,-0.8,x
O=C(NN=C1CCCCCCC1)c1ccc2ccccc2n1,0.661,2.8,1.9,-0.5,3.3,-10.6,10.5%
Cc1ccc(-c2csc(N3CCN(c4cc5c(cc4Cl)nc(-c4ccncc4)n5CCOCCO)CC3)n2)cc1,x,1.8,1.6,0.6,-1.2,22.7,x
O=C(CNS(=O)(=O)c1ccc(Br)s1)NCCc1ccc(Cl)cc1,0.684,-3.0,0.7,0.1,1.7,8.7,x
NC(=O)c1ccsc1NC(=O)CSc1nnc(C2CC2)n1Cc1ccccc1,0.687,5.9,-0.1,-0.9,2.1,2.4,14.2%
COc1cc(Cl)c(C)cc1NCC(=O)Nc1cccc(S(=O)(=O)N2CCCC2)c1,x,2.9,2.3,1.3,x,1.5,2.2%
CCCCNC(=O)N(O)C1N(/N=C/c2ccccc2F)C(=S)SC1(C)C (stereo not given),x,-3.7,1.0,1.0,x,-2.6,-2.4%
CCCS(=O)(=O)c1c(S(=O)(=O)CCC)c2ccc(C(N)=O)cn2c1C(=O)c1ccccc1,0.682,-5.6,-0.8,1.3,1.4,1.2,x
N#Cc1c(-c2ccccc2Cl)cc(-c2ccccc2)[nH]c1=S,x,4.6,x,0.6,x,x,-1.4%
COc1cccc(C2=NOC(C(=O)Nc3cccnc3Cl)C2)c1OC (stereo not given),0.719,-1.4,-0.6,0.3,1.5,5.9,-2.7%
O=c1[nH]c(C2CCCN(S(=O)(=O)c3cccc(Cl)c3)C2)nc2c1nnn2Cc1ccc2c(c1)OCCO2 (stereo not given),0.737,4.4,-2.1,-1.3,4.1,7.8,-4.4%
Cn1cc(P(=S)(N2CCOCC2)N2CCOCC2)cc1P(=O)(N1CCOCC1)N1CCOCC1,0.623,-3.4,-2.1,0.7,-0.2,5.1,19.3%

# The order is random, and some 2.1% of all compounds hit somewhere here.
